Compound activity from PubChem BioAssay.
LASV entry inh: qHTS for Inhibitors of binding or entry into cells for Lassa Virus | AID 540256, 2011 | Potency, µM (doses to about 37.9 µM), inactives show top-dose activity change, negative = inhibition, hits mostly inhibitors | Lassa virus pseudotype entry inhibition, cell reporter; control for the full effect not named in the record | hit rate 1.2% among 300,000; active means well fitted inhibition curve with a large enough effect; inconclusive means small, poorly fitted or top-dose-only effect, or effect the other way; inactive means flat fitted curve, though single readings scatter; tested in HEK293 cells; further: on the % scale 0 is the no-effect control and ±100 the full control effect; nearly all actives have a fitted effect of over 50% in size; luciferase read-out
RE007 growth inh: qHTS Assay for Inhibitors of the HIV-1 protein Vpr. hit rate 0.21% among 360,000. Potency, µM (titrated, usually from 92.2 µM), inactives show at the highest dose activity change, negative = less growth. S. pombe RE007 Vpr strain, BacTiter-Glo ATP luminescence, 24 h; control for the full effect not named in the record; active = well fitted falling curve with a large enough effect; inconclusive = small, poorly fitted or top-dose-only effect; inactive = no such curve, though single readings can be large or run the other way;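 further: on the % scale 0 is the no-effect control and ±100 the full control effect; nearly all actives have a fitted effect of over 50% in size; the assay follows cell death caused by Vpr and the record does not say whether a fall means rescue or toxicity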
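Fission yeast strain RE007, carrying one chromosomally integrated HIV-1 vpr copy, was seeded at OD 0.01 in PMG+AL medium with 23 nL pinned compound. After 24 h at 30 °C and 99% humidity, viability was read by BacTiter-Glo luminescence.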
NS1 function inh: qHTS Assay for Inhibitors of Influenza NS1 Protein Function. AID 2326, 2010. Potency, µM (highest dose often 46.1 µM), inactives show at the highest dose activity, positive = more growth. hit rate 0.4% among 270,000. S. cerevisiae slowed by influenza A NS1, growth recovery by OD600; active means well fitted rising curve with a large enough effect; inconclusive means small, poorly fitted or top-dose-only effect; inactive means no such curve, though single readings can be large or run the other way; further: nearly all actives have a fitted effect of over 50% in size
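Growth recovery, yeast-based: influenza A NS1 expressed in S. cerevisiae causes slow growth, and suppressors are detected by OD600. The parent strain without NS1 is used as positive control.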
Cruzain Triton: qHTS Assay for Promiscuous and Specific Inhibitors of Cruzain (with detergent); Cruzipain (Trypanosoma cruzi), P25779; purified cruzain, Z-FR-AMC fluorescence, 0.01% Triton; Potency, µM, without a hit: max response, negative = inhibition, usual class: inhibitors; hit rate 0.43% among 200,000; AID 1478, 2009;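 further: plate controls were neutral wells for no effect and buffer without enzyme for full effect; nearly all actives have a fitted effect of over 40% in size; top concentration of the series not given in the record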
Target sequence (P25779 123-467 limits assumed): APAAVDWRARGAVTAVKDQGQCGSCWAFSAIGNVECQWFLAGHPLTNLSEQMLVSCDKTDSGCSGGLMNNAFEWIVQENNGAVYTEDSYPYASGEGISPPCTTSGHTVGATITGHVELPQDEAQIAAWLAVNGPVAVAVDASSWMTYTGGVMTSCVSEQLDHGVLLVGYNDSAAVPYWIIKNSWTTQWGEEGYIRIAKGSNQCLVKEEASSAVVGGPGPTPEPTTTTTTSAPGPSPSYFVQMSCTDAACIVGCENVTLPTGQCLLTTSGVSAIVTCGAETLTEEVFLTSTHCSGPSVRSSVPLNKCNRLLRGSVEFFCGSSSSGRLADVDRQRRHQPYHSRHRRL
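In this qHTS format, compounds are incubated with 1.5 nM cruzain for 15 min at room temperature before 2 uM Z-FR-AMC is added. Release of AMC is followed at 360/450 nm, and progress is taken as the 60 s fluorescence difference.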
SARS PLpro yeast: qHTS of Yeast-based Assay for SARS-CoV PLP | hit rate 0.19% among 330,000 | S. cerevisiae expressing SARS-CoV PLpro, growth rescue; control for the full effect not named in the record | Potency, µM (doses to about 32.9 µM), inactives show at the highest dose activity, positive = growth rescue; active means well fitted rising curve with a large enough effect; inconclusive means small, poorly fitted or top-dose-only effect; inactive means no such curve, though single readings can be large or run the other way; further: 0% is about no effect; nearly all actives have a fitted effect of over 55% in size; growth read by luminescence after 48 h
2A StopGo: High Throughput Screening for Foot and Mouth Disease Virus Antivirals | human cells with a luciferase reporter of 2A StopGo recoding; control for the full effect not named in the record | Potency, µM (doses to about 57.9 µM), for inactives: at the highest dose signal change, negative = less light | hit rate 1.2% among 410,000; active = well fitted falling curve with a large enough effect; inconclusive = small, poorly fitted or top-dose-only effect; inactive = no such curve, though single readings can be large or run the other way; tested in HEK293T cells; further: on the % scale 0 is the no-effect control and ±100 the full control effect; nearly all actives have a fitted effect of over 45% in size; luciferase light after 4 h
Cruzain noTriton: qHTS Assay for Promiscuous and Specific Inhibitors of Cruzain (without detergent). AID 1476, 2009. Potency, µM, inactives show max response, negative = inhibition, usual class: inhibitors. hit rate 2.3% among 200,000. Cruzipain (Trypanosoma cruzi), P25779. purified cruzain, Z-FR-AMC fluorescence, no detergent;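 further: plate controls were enzyme without inhibitor for no effect and buffer without enzyme for full effect; nearly all actives have a fitted effect of over 40% in size; top concentration of the series not given in the record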
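Detergent-free condition (0.00005% Triton X-100) in acetate buffer pH 5.5 with DTT. 1.5 nM enzyme and compound were pre-mixed 15 min, then 2 uM Z-FR-AMC substrate added; reaction progress from fluorescence change between first and third reads (60 s).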
Marburg entry inh: qHTS for inhibitors of binding or entry into cells for Marburg Virus; Marburg virus pseudotyped entry inhibition, cell reporter; control for the full effect not named in the record; about a third of the inactives were read at about 46 µM; Potency, µM (series often up to 37.8 µM), for the others: top-dose activity change, negative = inhibition, actives largely listed as inhibitors; hit rate 1.8% among 300,000; AID 540276, 2011; active = well fitted inhibition curve with a large enough effect; inconclusive = small, poorly fitted or top-dose-only effect, or effect the other way; inactive = flat fitted curve, though single readings scatter; tested in HEK293 cells; about a fifth of its hits are not listed in these tables; further: on the % scale 0 is the no-effect control and ±100 the full control effect; luciferase read-out
* = called active by the depositor; u = inconclusive; x = no result given; & = joins results of further samples; [ ] = remark or other dose. Unless noted, the call rests on the fitted dose curve; in most records, active means well fitted curve in the direction sought with a large enough effect; inconclusive means small, poorly fitted or top-dose-only effect, or another doubt; inactive means no such curve, though single readings can be large; an effect the other way counts as inactive or inconclusive. Potency means the concentration at half of the fitted maximal effect.

molecule	LASV entry inh	RE007 growth inh	NS1 function inh	Cruzain Triton	SARS PLpro yeast	2A StopGo	Cruzain noTriton	Marburg entry inh
Cc1ccc(C(=O)Nc2ccn(Cc3ccc(F)cc3)n2)o1	2%	-1%	-9%	-1.9%	11%	31%[activator]	-7%	-3%
CC(C)(Cc1ccc(O)cc1)NC(=O)CC(=O)N=Nc1c(O)[nH]c2cc(Br)ccc12	-19%	-12%	x	x	-2%	-15%	x	4%
CC(=O)Nc1ccc(NC(=O)C2CCCN2C(=O)Nc2ccccc2[N+](=O)[O-])cc1 (stereo not given)	12%	2%	-1%	x	0%	-11%	x	-2%[46.1 µM]
COc1ccc(C(=O)NCc2nnc(SCC(=O)N3CCc4ccccc43)o2)cc1OC	5%	-7%	-8%	-0.5%	0%	-25%	2%	7%&15%
COc1cc(NS(=O)(=O)c2ccc(N/C=C\C(=O)c3ccc(F)cc3)cc2)nc(OC)n1	-1%	9%	16%	-5.0%	u	0%	u	u
CCC(=O)Oc1ccc(C2N(C(=O)CC)CCN2S(=O)(=O)c2ccc(C)cc2)cc1OC (stereo not given)	7%	13%	-20%	0.5%	6%	49%[activator]	u	7%&7%
CNCc1ccccc1Sc1cc(O)ccc1O	u	45%	11%	-5.3%	-39%	-11%	-4%	u
COCCCN(C(=O)c1ccc(-c2ccc(C(C)=O)cc2)o1)c1c(N)n(CC(C)C)c(=O)[nH]c1=O	-16%	17%	x	x	x	6%	x	1%
COc1ccc2nc(SCC(=O)NCC3CCCO3)c(C#N)cc2c1 (stereo not given)	-18%	-4%	-23%	x	0%	10%	x	-15%[46.1 µM]
CC(=O)NC(=S)c1c(N)n(Cc2ccccc2)c(=O)n(C)c1=O	x	x	5%	-3.0%	9%	x	-15%	x
COc1ccc(S(=O)(=O)N2CCC(C(=O)NCc3ccccn3)CC2)cc1OC	-26%	-13%	-9%	-3.2%	-2%	x	-2%	23%
Cn1c(=O)[nH]c(=O)c2c1nc(Br)n2CC(O)COCc1ccccc1 (stereo not given)	4%	22%	-3%	-0.1%	-1%	u	-6%	-8%[46.1 µM]
COc1ccc(N(C)S(=O)(=O)c2cccc(C(=O)Nc3cccc(C(=O)NC4CC4)c3)c2)cc1	u	6%	x	x	-4%	-17%	x	u
COc1ccc(NC(=O)[C@H](C)NC(=O)C2CCN(S(=O)(=O)c3ccc(OC)cc3)CC2)cc1	x	6%	0%	x	-1%	2%	x	x
CC1CCCN(S(=O)(=O)c2cc3c4c(c2)C(C)C(=O)N4CCC3)C1 (stereo not given)	x	5%	12%	x	-2%	11%	x	x
CCOC(=O)c1ccoc1CSCC(=O)N1CCN(S(=O)(=O)c2ccc(C)cc2)CC1	-22%	-28%	-6%	6.0%	1%	-25%	19%	-1%
Cc1cccc(NC(=O)CCCc2ccccc2)c1C	25%[46.1 µM]	1%	9%	x	0%	23%	x	u
COc1ccc2nc(NC(=O)CS(=O)(=O)c3ccc(C)cc3)sc2c1	u	-15%	18%	x	-7%	7%	x	4%[46.1 µM]
CCC(=O)c1cc(F)c(N2CCN(C(=O)c3ccco3)CC2)cc1C	x	-16%	-38%	-8.0%	-14%	-16%	1%	x
CCc1nc2ccccc2nc1N1CCN(S(=O)(=O)c2ccccc2)CC1	u	-3%	2%	x	-1%	u	x	u
Cc1ccccc1Cn1ccc(NC(=O)c2cc3ncc(Br)cn3n2)n1	x	-7%	-2%	x	-2%	-12%	x	x
O=C(Cn1cnc2cc([N+](=O)[O-])ccc2c1=O)Nc1ccc(Br)cc1	x	4%	2%	x	0%	-9%	x	x
CCOC(=O)c1c(/N=C/C2C(=O)NC(=O)NC2=O)sc2c1CCC2	21%[46.1 µM]	37%	x	x	2%	-11%	x	u
Nc1ccc(-n2cc(-c3ccccc3)[nH]c2=S)cc1	x	11%	-1%	x	-3%	-7%	x	x
Cc1ccc(C(=O)n2nc(-c3cccnc3)nc2N)cc1	-2%	-4%	-57%	3.6%	0%	-1%	4%	24%
CC1CN(C(=O)C2(C)CC2(Cl)Cl)CC(C)O1 (stereo not given)	5%	-4%	6%	-0.2%	-8%	-2%	-2%	-3%
COc1cc(-c2nnc(SCC(=O)Oc3ccc(C)cc3C)o2)cc(OC)c1OC	-4%[46.1 µM]	x	x	-6.6%	x	-5%	3%	u
COc1cc2ccccc2cc1C(=O)Nc1ccc(Cl)cn1	x	3%	-4%	x	-5%	26%	x	x
COc1cc(C2=NOC(C(=O)Nc3cc(C)on3)C2)cc(OC)c1OC (stereo not given)	x	8%	6%	x	1%	62%[activator]	x	x
COc1ccc(C(=O)N2CCN(c3ncccn3)CC2)cc1[N+](=O)[O-]	x	2%	5%	x	1%	-12%	x	x
O=C(/C=C/c1ccc(F)cc1)NC(=S)Nc1ccccc1	-18%[46.1 µM]	-20%	3%	x	0%	18%	x	-27%[46.1 µM]
C[C@H](NC(=O)c1nc[nH]c1C(=O)N[C@@H](CCCCNC(=O)OC(C)(C)C)C(=O)OC(C)(C)C)c1ccccc1	x	4%	3%	x	1%	u	x	x
O=C(CSc1ccccc1C(=O)NCc1ccccc1)NC1CCCCCCC1	1%	24%	-16%	-5.4%	12%	-17%	4%	u
COc1cc(/C=C/c2nc(C#N)c(N3CCC(C)CC3)o2)cc(OC)c1OC	-14%[46.1 µM]	x	x	8.2%	x	-12%	u	7%[46.1 µM]
CC(C)C(=O)Nc1cccc2nsnc12	-12%	-24%	-16%	0.6%	-14%	x	4%	7%
CCn1c(CCNC(=O)c2ccc(Cl)cc2Cl)n[nH]c1=S	-5%	16%	10%	1.5%	-1%	2%	0%	7%
Cc1sc2ncn(CC(=O)N3CCN(c4ccccc4)CC3)c(=O)c2c1S(=O)(=O)N1CCC(C)CC1	14%[46.1 µM]	x	x	-3.8%	x	-8%	u	u
COCCn1c(=O)[nH]c(=O)c2c(C(F)(F)F)cc(-c3cccs3)nc21	u	-8%	-3%	-17%	-15%	-24%	u	u
CCNc1nc(NCC)n2c(SCC(=O)N(CC)C3CCCCC3)nnc2n1	-19%	-5%	2%	-3.0%	6%	0%	-16%	-10%
O=C(O)CCC1(CCC(=O)O)CCCC(CCC(=O)O)(CCC(=O)O)C1=O	18%[46.1 µM]	3%	x	x	x	-3%	x	-3%[46.1 µM]
CSc1nc2c([nH]1)c(=S)n(C)c(=O)n2C	2%[46.1 µM]	-12%	x	x	x	-11%	x	13%[46.1 µM]
CCN(CC)S(=O)(=O)c1ccc(Cl)c(NC(=O)COC(=O)c2cc(-c3ccccc3Cl)nc3ccccc23)c1	-6%	-8%	14%	-3.6%	19%	-17%	10µM*	18%
Cc1cc(/C=N/O)c(C)n1-c1ccc(Br)cc1	u	u	7%	-6.2%	-3%	-22%	-23%	u
Brc1cccc(OCCCCN2CCCCC2)c1	-8%	7%	-8%	-2.0%	-22%	-12%	-6%	u
CCOC(=O)N1CCC(N(C(=O)Nc2ccc(Cl)c(Cl)c2)C(C)CC)CC1 (stereo not given)	u	3%	-104%	-3.3%	-15%	x	4%	u
COc1ccccc1/C=C(\C)C(=O)c1c(C)cc(C)[nH]c1=O	x	4%	3%	x	0%	-18%	x	x
CCCN(CCC)C(=O)c1c[nH]c2ccc(S(=O)(=O)N(C)c3ccc(OCC)cc3)cc2c1=O	7%[46.1 µM]	x	x	-5.2%	x	3%	5%	x
C=CCC(Nc1ccco1)c1ccccc1 (stereo not given)	2%	-13%	10%	3.6%	7%	-5%	-3%	15%
CC(C)NC(=O)C1CCN(C2CCN(C(=O)c3cc4c(s3)CCCCC4)CC2)CC1	2%[46.1 µM]	6%	-1%	x	0%	-12%	x	-24%[46.1 µM]
CNP1(NC)=Nc2nn(-c3ccccc3)c(N)c2C(c2ccccc2)=N1	16%	-3%	-6%	-1.2%	5%	x	-12%	3%

More entries follow:
molecule	LASV entry inh	RE007 growth inh	NS1 function inh	Cruzain Triton	SARS PLpro yeast	2A StopGo	Cruzain noTriton	Marburg entry inh
COC(=O)Nc1ccc([N+](=O)[O-])cc1OC	0%	34%	12%	-6.3%	0%	-23%	0%	-1%
O=c1c2sccc2[nH]c(=S)n1Cc1ccccc1	u	-6%	5%	-7.1%	18%	26%	6%	2%
CC1CCN(C2=NN3C(=N)/C(=C\c4ccc(OC(=O)c5ccco5)cc4)C(=O)N=C3S2)CC1	x	-1%	-20%	x	3%	-13%	x	x
Cc1ccc2nc(SCC(=O)NC3CCCC3)[nH]c2c1	15%[46.1 µM]	8%	-11%	x	-2%	-3%	x	25%[46.1 µM]
COCCNC(=O)c1ccc(NC(=O)N2CCCCc3ccccc32)cc1	7%[46.1 µM]	x	x	-1.0%	x	4%	-1%	x
NCC1CC2c3ccccc3C1c1ccccc12 (stereo not given)	14%[46.1 µM]	-10%	6%	x	2%	-22%	x	u
Nn1c(SCC(=O)Nc2nc3ccccc3s2)nncc1=O	19%	9%	7%	-0.9%	11%	-20%	-3%	1%
COCc1nc2ccccc2n1CCc1ccccc1	x	3%	16%	x	21%	-7%	x	x
CCOC(=O)c1c(C)[nH]c(C(=O)Cn2c(=O)c3c(ncn3CC)n(Cc3ccccc3)c2=O)c1C	-13%	14%	20%	-13%	-15%	-17%	u	0%&0%
COc1ccc(OCC(=O)N2c3ccc(C)cc3C3CN(C)CCC32)cc1 (stereo not given)	-3%	-1%	0%	x	2%	8%	x	0%[46.1 µM]
COCCN1C(=O)/C(=C/c2ccc(OCc3ccc(C(=O)O)cc3)c(OC)c2)SC1=Nc1ccccc1	u	x	0%	u	-30%	-25%	u	-26%
COc1ccccc1C/C(N)=N/OC(=O)c1ccco1	x	6%	-3%	x	-1%	-18%	x	x
CC(C)C(=O)NNC(=O)c1cc2sccc2s1	x	3%	2%	x	-1%	7%	x	x
